miR-21 FLuc: raises the signal of a miR-21 reporter. Potency, µM (highest dose often 38.3 µM), without a hit: top-dose reporter change, positive = more light. HeLa miR-21 FLuc reporter, luciferase, 48 h. 340,000 tested, under 10 active. AID 2288; active = well fitted rising curve with a large enough effect; inconclusive = small, poorly fitted or top-dose-only effect; inactive = no such curve, though single readings can be large or run the other way;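 note: % of control where 0% means no effect; miR-21 action dims this reporter so a rising signal means less miR-21 action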
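Using DMEM plus 10% FBS, HeLa miR-21-FLuc cells are incubated with test compounds (final up to about 40uM) for 48 hours; firefly luciferase signal is then imaged following reagent-mediated lysis.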
Rango complex inh: prevents formation of the Rango-importin beta complex. Rango CFP/YFP FRET sensor + importin beta, 45 min. Potency, µM (titrated, usually from 92.2 µM), for inactives: at the highest dose inhibition of complex formation. 340,000 tested, 0.031% active. AID 540263; active = rising FRET ratio curve, often small or poorly fitted; inconclusive = mostly compound fluorescence or quenching in the first reads; inactive = flat curves in all reads;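 note: potency is the fitted concentration of half-maximal effect; 0% = DMSO wells and 100% = buffer wells lacking importin beta; nearly all actives have a fitted effect of over 15% in size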
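FRET biosensor Rango (snurportin 1 IBB between N-terminal EYFP and C-terminal Cerulean), 50 nM in PBS/1 mM DTT/0.02% Tween-20/0.1% BSA, preincubated 5 min RT with compound; 0.125 microM importin beta added, 45 min RT, CFP/YFP FRET ratio read.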
GLA inh pH 4.5: blocks human alpha-galactosidase A at pH 4.5. activity change, negative = inhibition, % at 105 µM. purified enzyme, 4-MU-alpha-Gal fluorescence, pH 4.5. 230,000 tested, under 10 active; inconclusive = small, poorly fitted or top-dose-only inhibition, or a rising curve; inactive = flat fitted curve, though single readings scatter; no compound was filed as active;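 note: 0% = full activity with enzyme and -100% = basal without enzyme; dose as in the result columns while the protocol names 77 µM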
Target sequence (P06280 whole entry, looked up): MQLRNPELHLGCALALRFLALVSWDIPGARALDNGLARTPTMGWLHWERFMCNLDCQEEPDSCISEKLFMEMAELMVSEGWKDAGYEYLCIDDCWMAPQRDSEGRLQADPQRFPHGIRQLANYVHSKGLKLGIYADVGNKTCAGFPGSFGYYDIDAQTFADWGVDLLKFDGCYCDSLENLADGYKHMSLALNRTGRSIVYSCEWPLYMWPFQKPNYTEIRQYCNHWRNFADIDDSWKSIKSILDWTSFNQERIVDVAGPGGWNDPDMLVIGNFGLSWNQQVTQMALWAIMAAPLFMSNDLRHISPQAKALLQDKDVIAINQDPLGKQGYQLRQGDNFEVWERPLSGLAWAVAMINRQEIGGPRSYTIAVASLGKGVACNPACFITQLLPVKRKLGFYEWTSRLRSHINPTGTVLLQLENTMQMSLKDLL
Rango release inh: prevents RanGTP from dissociating the Rango-importin beta complex; O95149+P62826; Potency, µM (top dose mostly 46.1 µM), for the others: at the top dose activity change, negative = inhibition; 340,000 tested, 0.071% active; Biochemical FRET Rango-importin beta, RanGTP-induced dissociation; AID 540253; active means falling FRET ratio curve, often poorly fitted, with flat reads before Ran was added; inconclusive means other falling curves, or compound fluorescence or quenching; inactive means flat or rising ratio curve;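 note: potency is the fitted concentration of half-maximal effect; % of control where 0% means no effect; nearly all actives have a fitted effect of over 45% in size; -100% = wells without RanGTP and RCC1; the record marks most hits as doubtful in a second field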
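Quantitative HTS using a FRET biosensor: 0.1 uM Rango, 0.25 uM importin beta, 0.6 uM Ran, 2 mM GTP, 0.2 uM RCC1 final, PBS with DTT, Tween-20 and BSA. Post-read taken 45 min after Ran addition.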
* = called active by the depositor; ? = inconclusive; nt = no result given.

SMILES | miR-21 FLuc | Rango complex inh | GLA inh pH 4.5 | Rango release inh
CC1CCc2cc(F)ccc2N1C(=O)c1ccc2c(c1)OCO2 (stereo not drawn) | -1% | -3.1% | 1 | 10%
Cc1n[nH]c(=S)n1/N=C/c1ccccc1 | -23% | -3.6% | 4 | 9%
CC(C)(C)n1nnnc1CN(Cc1ccc(F)cc1)Cc1ccco1 | -3% | 0.3% | 3 | -5%
CC(=O)NC(c1ccc(Cl)cc1Cl)c1ccc2cccnc2c1O (stereo not drawn) | 28% | 2.8% | nt | 1%
O=C(c1ccccc1)N1CCc2[nH]nc(-c3ccccc3)c2C1 | -2% | 1.5% | nt | -5%
COc1ccc(Cl)cc1NC(=O)C/C(C)=N/NC(=O)COc1ccc(C)cc1 | 0% | 0.4% | nt | 6%
CCC(CC)C(=O)Nc1cc(=O)n(C)c(=O)n1C | -8% | 0.4% | 0 | 31%
Cn1c(CO)cnc1S(=O)(=O)Cc1c(Cl)cccc1Cl | -2% | 4.7% | nt | 4%
O=C(O)C(CCC(C(=O)O)c1ccccc1)c1ccccc1 (stereo not drawn) | nt | -0.8% | nt | 4%
CCN(CC(=O)Nc1c(F)cccc1F)C(=O)CN1c2cccc3cccc(c23)S1(=O)=O | nt | -0.5% | nt | 1%
O=C(O)CSc1nnc(Nc2ccccc2)n1-c1ccccc1 | 1% | -0.3% | 4 | -3%
COc1ccc(Cl)cc1NC(=O)CN(C)C(=O)c1cc2c(s1)CCCC2 | nt | 0.0% | nt | 1%
CCCCOC(=O)C(C)c1c(C)[nH]c(=S)[nH]c1=O (stereo not drawn) | -1% | 0.9% | 1 | -20%
Nc1nnc(SCc2ccccc2Cl)s1 | -43% | 1.3% | 8 | 2%
COc1ccc(NS(=O)(=O)c2ccc(C)c(C(=O)NNC(=O)c3ccccc3O)c2)cc1 | nt | 0.4% | nt | -17%
COc1ccc(CC2(C)OC(c3ccccc3)=NN2C(C)=O)cc1 (stereo not drawn) | 3% | 3.2% | -4 | 4%
COC(=O)/C(C#N)=C/c1c(-c2ccccc2)nc2n1CCS2 | 1% | 3.0% | -6 | -2%
COc1ccc(OC)c(NC(=O)C2CC(C)=C(C)CC2C(=O)O)c1 (stereo not drawn) | 2% | -0.2% | 6 | 6%
Cc1ccc(OCc2cc(C(=O)N(C)CCc3ccccn3)no2)cc1C | -59% | -2.7% | nt | -4%
Cc1ccc(CSc2nnnn2C)cc1 | -11% | -2.4% | -7 | -6%
NC(=O)C1(N2CCCCC2)CCN(C(=O)c2ccc(C#CC3(O)CCCCC3)cc2)CC1 | -3% | -0.3% | 1 | 22%
COc1ccccc1NC(=S)N1CCN(c2ncccn2)CC1 | -5% | 1.3% | 3 | 6%
CCn1cc(C(=O)NCc2cccc(F)c2)c(=O)c2cc(F)c(N3CCN(C(=O)c4ccco4)CC3)cc21 | -1% | 2.4% | -6 | 2%
COc1ccc(CCCc2nnc(SCc3nc4ccccc4c(=O)[nH]3)n2C)cc1 | -2% | -0.5% | 5 | 9%
O=C1C=CC(=O)N1c1ccc2c(c1)C(NC(=O)C(F)(F)F)c1ccccc1-2 (stereo not drawn) | nt | 0.2% | nt | 9%

Single values from the results shown:
Entry for `COc1ccc(CCCc2nnc(SCc3nc4ccccc4c(=O)[nH]3)n2C)cc1` under Rango release inh: 9%
Entry for `COc1ccc(CC2(C)OC(c3ccccc3)=NN2C(C)=O)cc1` (stereo not drawn) under Rango complex inh: 3.2%

The list continues.
SMILES | miR-21 FLuc | Rango complex inh | GLA inh pH 4.5 | Rango release inh
COc1ccc(NC(=O)NCCN2CCc3ccccc3C2)cc1 | -2% | -0.3% | 5 | 0%
COc1ccccc1-n1cnnc1SCC(=O)Nc1cccc(S(N)(=O)=O)c1 | -1% | -1.6% | nt | -7%
CCC(C)(C)NC(=O)C(c1ccco1)N(C(=O)Cn1nnc2ccccc21)c1ccc2c(c1)OCO2 (stereo not drawn) | -11% | -3.5% | -2 | 19%
CCN1CCN(C(CNS(=O)(=O)c2ccc(Br)cc2)c2cccnc2)CC1 (stereo not drawn) | -3% | -0.4% | nt | 2%
Cc1cc(SCC(=O)N/N=C/c2ccccc2C(=O)O)c(C)cc1Br | 0% | 2.3% | nt | 21%
O=C(NNC(=O)c1ccc([N+](=O)[O-])cc1)c1ccc(F)cc1 | nt | -1.0% | nt | 24%
COc1ccc(CN2CC(=O)N(c3ccc(Cl)cc3)C2=S)cc1OC | -14% | -5.8% | nt | -1%
Cc1ccc(N(C)S(=O)(=O)c2cccc(C(=O)N(C)Cc3cnn(-c4ccccc4)c3)c2)cc1 | nt | 0.0% | nt | -9%
CCOC(=O)c1ccccc1NC(=O)COC(=O)CCC(=O)N1CCOCC1 | 1% | 0.6% | nt | 6%
O=C(N/N=C/c1ccc(Cl)cc1Cl)c1cccc(F)c1 | -43% | -0.5% | -6 | 2%
CCOc1ccc(NC(=O)C2CCCN2C(=O)NC2CCCCC2)cc1 (stereo not drawn) | -1% | -3.8% | nt | 2%
COc1cc(-n2c(C)nc3cc(C(=O)N4CCOCC4)ccc32)cc(OC)c1OC | -2% | 0.1% | 3 | 7%
Cn1cc([N+](=O)[O-])c(C(=O)Nc2cc(Oc3ccccc3)cc([N+](=O)[O-])c2)n1 | -9% | 5.9% | 5 | -1%
Cc1ccccc1-n1c(-c2ccoc2C)n[nH]c1=S | -7% | 0.3% | -7 | -19%
CCCNC(=O)CS(=O)Cc1nc(-c2cccc(OC)c2)oc1C (stereo not drawn) | -1% | -2.0% | 7 | 0%
COc1ccc(CCN(C)c2ccc(C(N)=O)cc2[N+](=O)[O-])cc1OC | -11% | -1.8% | 1 | -12%
Fc1ccc(-c2nn(-c3ccccc3)cc2CNCc2ccccc2)cc1 | 5% | -3.5% | -1 | -12%
CNS(=O)(=O)c1cccc2nsnc12 | -3% | -1.0% | 0 | -7%
Cc1cccc(NC(=O)c2nnn(-c3cccc(C(F)(F)F)c3)c2N)c1 | -16% | -0.4% | 4 | -7%
Cc1c(NC(=O)c2ccc3c(c2)OCO3)cccc1-c1nc2ccccc2o1 | 0% | -0.7% | -2 | 24%
C=CCSc1nc2c(c(=O)[nH]c(=O)n2C)n1CC | -26% | 3.2% | 3 | -5%
CC(=O)Nc1cc(C(F)(F)F)ccc1Oc1cccc(Br)c1 | 8% | -3.0% | 7 | 22%
Cn1c(Cn2cnc([N+](=O)[O-])n2)nnc1SCC(=O)Nc1cccc(Cl)c1 | -3% | -0.7% | 4 | 1%
O=C(Cn1cc([N+](=O)[O-])cn1)N1CCN(Cc2ccc3c(c2)OCO3)CC1 | -2% | -4.3% | nt | -9%
O=C(NNC(=O)c1ccccc1Cl)c1ccc2c(c1)OCCO2 | nt | -0.2% | nt | 14%
SMILES | miR-21 FLuc | Rango complex inh | GLA inh pH 4.5 | Rango release inh
Cc1ccc(C(=O)Nc2ccc(C(=O)N/N=C/c3cccnc3)cc2)cc1 | 0% | 0.0% | nt | 12%
Cc1c(NC(=O)c2ccc(C(=O)Nc3c(C)n(C)n(-c4ccccc4)c3=O)cc2)c(=O)n(-c2ccccc2)n1C | 3% | -2.2% | nt | 1%
O=C(Cc1ccccc1)N/N=C/c1ccc(OCC(=O)Nc2ccccc2)cc1 | -16% | -0.9% | 1 | 2%
OCCC1CN(Cc2ccccc2-c2ccco2)CCN1C1CCCC1 (stereo not drawn) | -2% | 1.2% | nt | -13%
CNC(=O)NC(=O)CSc1ccc(NC(C)=O)cc1 | 0% | -1.1% | 2 | 1%
Cc1cc(Cl)ccc1N(CC(=O)N=Nc1c(O)[nH]c2ccccc12)S(C)(=O)=O | 2% | 1.0% | 0 | 9%
COc1ccccc1NC(=O)/C(=C/c1ccncc1)NC(=O)c1ccccc1 | 0% | -1.6% | nt | 10%
[O-][N+]12CC[N+]([O-])(CC1)c1ccccc12 | 0% | 2.2% | 1 | 7%
Cc1nn(CC(=O)Nc2ccccc2)c(=O)c2ccccc12 | -1% | 6.2% | -4 | 8%
Cc1ccc(C(=O)Nc2cc(Cl)ccc2-n2cncn2)o1 | nt | -2.2% | nt | -8%
COc1ccc(NC(=O)CN2CCN(CC(=O)Nc3ccc(OC)cc3)CC2)cc1 | 0% | 1.8% | nt | 3%
CC(C)(C)c1cc(CCC(=O)NCCc2ccccn2)cc(C(C)(C)C)c1O | 8% | -3.4% | nt | -6%
CN1CCN(C(=S)NC(=O)c2ccc(Br)cc2)CC1 | -10% | 4.6% | -4 | -7%
CSc1nnc(NC(=O)c2ccc(S(=O)(=O)N3CCOCC3)cc2)s1 | -9% | 1.7% | nt | 8%
CCOC(=O)C1CCN(c2ncnc3c2cnn3C)CC1 | 1% | 1.8% | nt | -8%
Cc1onc(-c2ccccc2)c1C(=O)N(Cc1ccco1)Cc1cccs1 | 2% | 2.5% | -1 | -4%
CCOC(=O)N1CCC(=NNC(N)=O)CC1 | -1% | 8.5% | 0 | 19%
COCCn1c(C)cc(C(=O)COC(=O)/C=C/c2cccc(OC)c2)c1C | -4% | -1.2% | 7 | -2%
CN(C)S(=O)(=O)c1ccc(C(=O)OCC(=O)c2ccc(OC(F)F)cc2OC(F)F)cc1 | -5% | -0.3% | 0 | 10%
O=C(CCc1nnc2n(Cc3ccc(Cl)cc3)c(=O)c3ccccc3n12)NCCCN1CCOCC1 | 5% | 6.3% | nt | ?
Cn1nc(-c2ccc(Cl)cc2)c2cc(C(=O)NCCCN3CCOCC3)sc21 | -6% | -1.2% | -10 | 1%
Cc1ccc2cc(CN(CC(C)C)C(=O)C3CCCO3)c(=O)[nH]c2c1 (stereo not drawn) | -1% | 1.2% | 3 | 0%
CCCS/C(N)=N/N=C/c1cc(C)ccc1O | -62% | -0.3% | 3 | -12%
COc1ccc(-c2cc(C(=O)N/N=C(\C)c3cccnc3)c3cc(C)ccc3n2)cc1OC | 8% | ? | nt | 5%
Nc1c(N(CCC2=CCCCC2)C(=O)c2ccc([N+](=O)[O-])o2)c(=O)[nH]c(=O)n1Cc1ccccc1 | nt | ? | nt | -13%

An excerpt from above in order of count of non-hydrogen atoms, descending:
SMILES | miR-21 FLuc | Rango complex inh | GLA inh pH 4.5 | Rango release inh
Nc1c(N(CCC2=CCCCC2)C(=O)c2ccc([N+](=O)[O-])o2)c(=O)[nH]c(=O)n1Cc1ccccc1 | nt | ? | nt | -13%
COc1ccc(NC(=O)CN2CCN(CC(=O)Nc3ccc(OC)cc3)CC2)cc1 | 0% | 1.8% | nt | 3%
O=C(Cc1ccccc1)N/N=C/c1ccc(OCC(=O)Nc2ccccc2)cc1 | -16% | -0.9% | 1 | 2%
CC(C)(C)c1cc(CCC(=O)NCCc2ccccn2)cc(C(C)(C)C)c1O | 8% | -3.4% | nt | -6%
Cc1ccc(C(=O)Nc2ccc(C(=O)N/N=C/c3cccnc3)cc2)cc1 | 0% | 0.0% | nt | 12%
Cc1ccc2cc(CN(CC(C)C)C(=O)C3CCCO3)c(=O)[nH]c2c1 (stereo not drawn) | -1% | 1.2% | 3 | 0%
Cc1nn(CC(=O)Nc2ccccc2)c(=O)c2ccccc12 | -1% | 6.2% | -4 | 8%
Cc1ccc(C(=O)Nc2cc(Cl)ccc2-n2cncn2)o1 | nt | -2.2% | nt | -8%
CNC(=O)NC(=O)CSc1ccc(NC(C)=O)cc1 | 0% | -1.1% | 2 | 1%
CCCS/C(N)=N/N=C/c1cc(C)ccc1O | -62% | -0.3% | 3 | -12%
CCOC(=O)N1CCC(=NNC(N)=O)CC1 | -1% | 8.5% | 0 | 19%

The list goes on:
SMILES | miR-21 FLuc | Rango complex inh | GLA inh pH 4.5 | Rango release inh
Cc1ccc(Cl)cc1NC(=S)Nn1cnnc1 | 4% | -2.7% | nt | -2%
CCOc1cccc(C2C(C(=O)c3ccco3)=C(O)C(=O)N2c2nnc(C)s2)c1 (stereo not drawn) | nt | ? | nt | ?
COc1ccc(N2CCN(C3CCCN(Cc4ccc(F)c(F)c4)C3)CC2)cc1 (stereo not drawn) | 4% | -0.9% | nt | 8%
CC(C)(C)C(=O)Nc1ccnn1C1CCN(C(=O)c2ccc(Cl)cc2F)CC1 | -3% | 4.9% | nt | 18%
O=C(O)C1=C[C@@H](C2CCCCC2)C[C@@H](OCCCCO)O1 | 0% | -0.2% | -2 | -13%
CC(C)(C)NC(=O)COC(=O)c1ccc(Cl)nc1 | 1% | -2.0% | 1 | -9%
Cc1ccc(C(C)C)c(OCC(O)CN2CCN(CCO)CC2)c1 (stereo not drawn) | -2% | -1.0% | -7 | 0%

Source: PubChem BioAssay

This is a subset (hit frequency here may not be typical).
